MARV entry inh: inhibitors of Marburg virus binding or cell entry; Marburg virus pseudotyped entry inhibition, cell reporter; control for the full effect not named in the record; about a third of the inactives were read at about 46 µM; Potency, µM (series often up to 37.8 µM), for inactives: top-dose activity change, negative = inhibition, most hits filed as inhibitors; actives 1.8% (n = 300,000); active = well fitted inhibition curve with a large enough effect; inconclusive = small, poorly fitted or top-dose-only effect, or effect the other way; inactive = flat fitted curve, though single readings scatter; tested in HEK293 cells; about a fifth of its hits are not listed in these tables; note: % is set by controls: 0 for no effect and ±100 for the full control effect; luciferase read-out
LASV entry inh: inhibitors of Lassa virus binding or cell entry; Lassa virus pseudotype entry inhibition, cell reporter; control for the full effect not named in the record; Potency, µM (titrated, usually from 37.9 µM), inactives show at the highest dose activity change, negative = inhibition, hits mostly inhibitors; actives 1.2% (n = 300,000); active means well fitted inhibition curve with a large enough effect; inconclusive means small, poorly fitted or top-dose-only effect, or effect the other way; inactive means flat fitted curve, though single readings scatter; tested in HEK293 cells; note: % is set by controls: 0 for no effect and ±100 for the full control effect; nearly all actives have a fitted effect of over 50% in size; luciferase read-out
Cruzain Triton: cruzain (T. cruzi) inhibition with detergent | P25779 | AID 1478 | actives 0.43% (n = 200,000) | purified cruzain, Z-FR-AMC fluorescence, 0.01% Triton | Potency, µM, for inactives: max response, negative = inhibition, hits mostly inhibitors; active = well fitted curve in the direction sought with a large enough effect; inconclusive = small, poorly fitted or top-dose-only effect, or another doubt; inactive = no such curve, though single readings can be large; an effect the other way counts as inactive or inconclusive;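 note: plate controls were neutral wells for no effect and buffer without enzyme for full effect; nearly all actives have a fitted effect of over 40% in size; top concentration of the series not given in the record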
Target sequence (P25779 123-467 limits assumed): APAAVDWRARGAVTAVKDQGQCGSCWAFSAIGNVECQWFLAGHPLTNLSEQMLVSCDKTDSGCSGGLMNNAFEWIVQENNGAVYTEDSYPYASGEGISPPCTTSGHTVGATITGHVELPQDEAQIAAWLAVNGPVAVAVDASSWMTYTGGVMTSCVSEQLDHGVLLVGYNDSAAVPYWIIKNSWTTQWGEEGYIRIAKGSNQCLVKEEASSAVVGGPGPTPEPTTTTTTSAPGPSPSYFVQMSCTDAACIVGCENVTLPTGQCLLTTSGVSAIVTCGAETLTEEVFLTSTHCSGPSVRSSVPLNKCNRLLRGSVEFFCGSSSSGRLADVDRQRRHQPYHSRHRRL
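Detergent-containing run (0.01% Triton X-100) in acetate buffer pH 5.5 with 5 mM DTT: enzyme at 1.5 nM final, 15 min compound preincubation at room temperature, then 2 uM Z-FR-AMC substrate. Activity taken as 60 s fluorescence increase at 360/450 nm.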
NS1 function inh: blocks influenza NS1 protein function; S. cerevisiae slowed by influenza A NS1, growth recovery by OD600; Potency, µM (series often up to 46.1 µM), inactives show at the highest dose activity, positive = more growth; actives 0.4% (n = 270,000); note: actives are rising curves; nearly all actives have a fitted effect of over 50% in size
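Growth recovery, yeast-based: influenza A NS1 expressed in S. cerevisiae causes slow growth, and suppressors are detected by OD600. The parent strain without NS1 is used as positive control.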
SARS PLpro yeast: SARS-CoV PLP inhibition in yeast; S. cerevisiae expressing SARS-CoV PLpro, growth rescue; control for the full effect not named in the record; Potency, µM (titrated, usually from 32.9 µM), without a hit: at the top dose activity, positive = growth rescue; actives 0.19% (n = 330,000); AID 485353; note: 0% is about no effect; nearly all actives have a fitted effect of over 55% in size; growth read by luminescence after 48 h
RE007 growth inh: less growth of the S. pombe RE007 Vpr strain; Potency, µM (series often up to 92.2 µM), for the others: at the highest dose activity change, negative = less growth; AID 651644; actives 0.21% (n = 360,000); S. pombe RE007 Vpr strain, BacTiter-Glo ATP luminescence, 24 h; control for the full effect not named in the record; active = well fitted falling curve with a large enough effect; inconclusive = small, poorly fitted or top-dose-only effect; inactive = no such curve, though single readings can be large or run the other way;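 note: % is set by controls: 0 for no effect and ±100 for the full control effect; nearly all actives have a fitted effect of over 50% in size; the assay follows cell death caused by Vpr and the record does not say whether a fall means rescue or toxicity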
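Fission yeast RE007 carrying one integrated HIV-1 vpr copy, seeded at OD 0.01 in PMG+AL medium with 23 nL pinned compound. Grown 24 h at 30 degrees; viability read by BacTiter-Glo luminescence after 5 min.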
Cruzain noTriton: inhibitors of Trypanosoma cruzi cruzain without detergent. Potency, µM, for inactives: max response, negative = inhibition, most hits filed as inhibitors. purified cruzain, Z-FR-AMC fluorescence, no detergent. P25779. actives 2.3% (n = 200,000); active = well fitted curve in the direction sought with a large enough effect; inconclusive = small, poorly fitted or top-dose-only effect, or another doubt; inactive = no such curve, though single readings can be large; an effect the other way counts as inactive or inconclusive;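 note: plate controls were enzyme without inhibitor for no effect and buffer without enzyme for full effect; nearly all actives have a fitted effect of over 40% in size; top concentration of the series not given in the record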
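Purified cruzain at 1.5 nM, pre-incubated 15 min with compound at room temperature in 100 mM sodium acetate pH 5.5, 5 mM DTT, 0.00005% Triton X-100. Reaction started with 2 uM Z-FR-AMC; AMC fluorescence increase over 60 s gives rate.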
2A StopGo: FMDV 2A StopGo reporter, luciferase signal | human cells with a luciferase reporter of 2A StopGo recoding; control for the full effect not named in the record | actives 1.2% (n = 410,000) | Potency, µM (series often up to 57.9 µM), for the others: at the highest dose signal change, negative = less light; active = well fitted falling curve with a large enough effect; inconclusive = small, poorly fitted or top-dose-only effect; inactive = no such curve, though single readings can be large or run the other way; tested in HEK293T cells; note: % is set by controls: 0 for no effect and ±100 for the full control effect; nearly all actives have a fitted effect of over 45% in size; luciferase light after 4 h
Starred values were filed as active, the others as inactive; ? = inconclusive; . = not tested or not shown; & = joins results of further samples; [ ] = dose if it differs, or a comment. Unless noted, calls come from the whole dose curve; as a rule, active means well fitted rising curve with a large enough effect; inconclusive means small, poorly fitted or top-dose-only effect; inactive means no such curve, though single readings can be large or run the other way. Potency is the fitted concentration of half-maximal effect.

SMILES | MARV entry inh | LASV entry inh | Cruzain Triton | NS1 function inh | SARS PLpro yeast | RE007 growth inh | Cruzain noTriton | 2A StopGo
CN1CCN(NC(=O)Nc2ccc(F)cc2)CC1 | 13%[46.1 µM] | ? | . | 9% | 16% | -3% | . | -2%
COc1ccc(NC(=O)c2ccc(-c3nc(CSc4ccccc4)c(C)o3)cc2)cc1OC | . | -10%[46.1 µM] | -4.7% | . | . | . | 9% | ?
COc1ccccc1N1CCN(C(=O)C(=O)c2cn(CC(=O)N3CCCCCC3)c3ccccc23)CC1 | -3% | 1% | . | 6% | -2% | -8% | . | ?
CC(C)c1nc(C(N)=O)c2[nH]c(=O)n(-c3ccc(F)cc3)c2n1 | . | . | . | 10% | 0% | 6% | . | -21%
CN(C)c1ccc(Nc2nc3ccccc3n3nnnc23)cc1 | -25%[46.1 µM] | -3%[46.1 µM] | -7.9% | . | . | . | 16µM* | ?
CC(=O)Nc1ccc(NC(=O)CCc2c(C)nc3c(c(C)nn3-c3ccccc3)c2C)cc1 | -13%[46.1 µM] | ? | 4.4% | . | . | . | ? | -25%
COc1ccc2c(c1OC)C(=O)N1C2SC(C)(C)[C@H]1C(=O)NC1CCCC1 (stereo not given in full) | . | . | . | 4% | 5% | 7% | . | -14%
CC(C)(C)C1CCC(=NOC(=O)c2ccc(F)cc2)CC1 (stereo not given) | 0%[46.1 µM] | -21% | . | . | -19% | ? | . | -11%
Fc1ccc(-c2nc3c(Cl)cc(C(F)(F)F)cn3c2Cl)cc1 | 2% | ? | -2.5% | 13% | -1% | -1% | -7% | 68%[activator]
COc1ccc(C2C(C(=O)OCC(=O)NC(C)(C)C)CCC(=O)N2c2ccc(C)cc2)cc1OC (stereo not given) | 0% | -26% | 2.9% | -11% | 11% | 7% | ? | -23%
COc1ccc(NC(=O)COC(=O)c2ccc3ccccc3n2)c(OC)c1 | 3% | 2% | . | . | 6% | -27% | . | -5%
O=C(COC(=O)c1c2c(nc3ccccc13)CCCC2)c1cccs1 | 7% | -14% | 1.2% | -114% | -25% | 5% | -21% | ?
Cc1cccc(CSc2nnc(CCCCCNC(=O)OC(C)(C)C)o2)c1 | ? | ? | . | -32% | -2% | -12% | . | ?
CCOC(=O)N1CCN(C(=O)c2cccn3c(=O)c4cc(Br)ccc4nc23)CC1 | -13% | -17% | . | . | 4% | -1% | . | -11%
COc1ccc(/C=N/n2c(-c3ccccc3)n[nH]c2=S)cc1 | 13% | ? | . | -8% | -5% | -1% | . | -24%
CCn1c(C)nnc1SCC(=O)Nc1cccc(C(F)(F)F)c1 | -25% | 0% | . | 10% | 8% | 27% | . | -1%
C=CCn1c(-c2ccccc2)n[nH]c1=S | 8%&8% | 3% | -0.3% | 13% | -3% | ? | -9% | -8%
CCN1CC(CN(C)Cc2nc(-c3ccc(OC)c4ccccc34)oc2C)CC1=O (stereo not given) | ? | 14%[46.1 µM] | . | 1% | 0% | 2% | . | 7%
O=Cc1cn(CCC(=O)O)nc1-c1cccc(Cl)c1 | 7%[46.1 µM] | 7% | . | 4% | -2% | -2% | . | 7%
O=C(Nc1ccccc1F)c1ccc(CNS(=O)(=O)c2cccc(C(F)(F)F)c2)cc1 | ? | 2% | 3.3% | 1% | -1% | 2% | ? | -22%

The closing two entries of the section above are carried over, then new ones follow.
SMILES | MARV entry inh | LASV entry inh | Cruzain Triton | NS1 function inh | SARS PLpro yeast | RE007 growth inh | Cruzain noTriton | 2A StopGo
O=Cc1cn(CCC(=O)O)nc1-c1cccc(Cl)c1 | 7%[46.1 µM] | 7% | . | 4% | -2% | -2% | . | 7%
O=C(Nc1ccccc1F)c1ccc(CNS(=O)(=O)c2cccc(C(F)(F)F)c2)cc1 | ? | 2% | 3.3% | 1% | -1% | 2% | ? | -22%
O=C(COC(=O)c1ccccc1Br)NCCC1=CCCCC1 | 9%[46.1 µM] | 14% | . | . | -7% | 16% | . | 46%[activator]
COc1ccc(-c2nc(CSCC(=O)NC3CCN(Cc4ccccc4)CC3)c(C)o2)cc1OC | . | . | . | -2% | 2% | -6% | . | ?
Cc1ccc(S(=O)(=O)N2CCOCC2)cc1C(=O)NCC1CCCO1 (stereo not given) | 23% | 3% | . | 1% | 6% | 7% | . | -18%
CCN1CCN(c2ccc(S(=O)(=O)N3CCCCC3)cc2NC(=O)COc2ccc(F)cc2Cl)CC1 | ? | ? | . | -2% | -1% | 10% | . | -13%
Cc1cc(C)c(NC(=O)CN2C(=O)NC3(CCOc4ccccc43)C2=O)c(C)c1 (stereo not given) | 2% | 0% | 1.5% | 4% | 3% | -4% | -4% | -14%
CC(NC(=O)CCSCc1ccccc1F)c1ccccc1 (stereo not given) | 21%&21% | ? | 1.0% | -4% | 2% | 6% | -14% | 28%&35%
O=C(Nc1ccc(CN2CCCCC2)cc1)c1ccc(Br)o1 | -4% | 0% | 0.5% | 3%[9.22 µM] | 6% | 24% | -16% | 40%[activator]
CCCc1nn(C)c2c1C(c1ccncc1)C(C#N)=C(N)O2 (stereo not given) | ? | 5% | 2.0% | 0% | -4% | ? | -6% | -25%
COC(=O)Cc1c(O)ccn(CCc2c[nH]c3ccccc23)c1=O | . | . | . | -3% | 0% | 3% | . | -19%
CN1C(=O)c2cccc3c(S(=O)(=O)Nc4ccc(O)c(C(=O)O)c4)ccc1c23 | 13%[46.1 µM] | 17% | . | 10% | 2% | 3% | . | -9%
CC(C)CC(=O)N1CCC(N2CCN(c3ccccc3)CC2)CC1 | -5%[46.1 µM] | 3% | -6.1% | 6% | 1% | 11% | 10% | -8%
CCOc1ccc(S(=O)(=O)N(C)c2ccc(OCC(=O)NCc3ccc(C(=O)OC)cc3)cc2)cc1 | 2%[46.1 µM] | 3.2µM* | . | . | -2% | 8% | . | 0%
CCOC(=O)C1=C(CS(=O)(=O)c2ccc(C)c(C)c2)NC(=O)NC1c1ccccc1OCC (stereo not given) | -1%[46.1 µM] | -12%[46.1 µM] | -7.7% | . | . | . | 7% | -3%
CCCCc1nc(NCc2ccccc2)c(C#N)c2c1COC(C)(C)C2 | 0%[46.1 µM] | 20% | 3.1% | -3% | 0% | -10% | 25µM* | -27%
O=S1(=O)CCN(Cc2ccc(F)cc2)CC1 | 16%[46.1 µM] | 21%[46.1 µM] | . | 5% | -1% | 8% | . | -7%
COc1ccc(-c2n[nH]c(C)c2-c2ccc(Cl)cc2)c(O)c1OC | -12% | ? | -15% | -10% | -6% | 8% | 17% | 32µM*
COc1cccc(CN(C)C(=O)c2cccc(S(=O)(=O)N3CCN(c4ccc(F)cc4)CC3)c2)c1OC | 2µM* | ? | . | . | 4% | 20% | . | 20µM*
CN(CC(=O)O/N=C(\N)c1ccccn1)S(=O)(=O)c1cc(Cl)ccc1Cl | 18% | 22%[14.3 µM] | 0.9% | -99% | 6% | -13% | -7% | 15%
O=C(c1ccccc1)c1c[nH]c2cc3c(cc2c1=O)OCO3 | . | . | 0.0% | 1% | -7% | . | 2% | .
CC(=O)c1nc(N2C(=O)CC(Cc3ccc(C)cc3)C2=O)sc1C (stereo not given) | ? | 17% | -2.0% | 1% | -10% | -12% | -15% | -21%
CCS(=O)(=O)N1CCC(C(=O)O)CC1 | ? | 4% | . | . | -6% | 14% | . | 60%[activator]
CC1CN(S(=O)(=O)c2cccc(-c3cn4cccnc4n3)c2)CC(C)O1 (stereo not given) | -3% | . | ? | ? | 0% | . | ? | .
Cc1ccc(C)c(N2CCN(C(=O)CCCCn3c(=O)[nH]c4ccccc4c3=O)CC2)c1 | ? | ? | -5.7% | -64% | -5% | 8% | ? | 20µM*
CSc1cccc(NC(=O)CCCOc2ccc(Cl)cc2Cl)c1 | -11% | -21% | -5.5% | 2% | 27% | 5% | -1% | -19%
Cc1ccc(CNC(=O)c2cnc(-c3ccccn3)nc2C(F)(F)F)cc1 | ? | 24% | 1.4% | -3% | 0% | -1% | 19% | 9%
COc1ccc(S(=O)(=O)N2CC(O)CC2C(=O)Nc2cccnc2)cc1 (stereo not given) | -1%[46.1 µM] | 15% | . | 2% | 0% | 2% | . | -13%
CC(C)(C)c1cc[n+](/C(C(=S)NC2CC2)=C(/[O-])c2ccc(Cl)s2)cc1 | ? | 2% | -10% | -1% | 2% | -4% | -5% | 35%[activator]
COc1cccc(N/C=C/C(=O)c2ccc(C)cc2)c1 | . | . | . | -48% | -6% | -18% | . | -16%
COC(=O)c1c(NC(=O)c2ccco2)sc(C(=O)N2CCCC2)c1C | -24% | 0% | -8.9% | -4% | 0% | -3% | -3% | .
COc1ccc(OC)c(NS(=O)(=O)c2ccc(-c3cc(C)no3)s2)c1 | . | ? | -5.1% | . | . | . | -18% | -16%
Cc1onc(-c2ccccc2)c1C(=O)NCCc1c[nH]c2ccccc12 | ? | -3% | -0.7% | 0% | -4% | 10% | -4% | -8%
O=C(NCc1ccc(Cl)cc1)C1CCN(C(=O)c2ccc(Cl)cc2)CC1 | 1% | ? | . | . | -5% | -3% | . | -23%
COc1ccc2oc(=O)cc(CN(C)Cc3ccccc3)c2c1 | ? | -23%[46.1 µM] | . | -9% | -6% | -14% | . | -5%
CC(C)CC(=O)Nc1ccc(F)c(Cl)c1 | -7% | 13% | 1.6% | -50% | 0% | 2% | -2% | 7%
CCc1nnc(NS(=O)(=O)c2ccccc2)s1 | 22%[46.1 µM] | 0%[46.1 µM] | . | 32% | -2% | 7% | . | 1%
CC1(C)OC(=O)CC1C(=O)NCc1ccccc1 (stereo not given) | 9% | 12% | 7.9% | -1% | 3% | 7% | -8% | 6%
Clc1ccc(/C=N/N2CCN(Cc3ccccc3Cl)CC2)cc1 | 26%[46.1 µM] | 0%[46.1 µM] | . | . | 0% | ? | . | 2%
CCC(=O)Oc1ccc(/C=C(\C#N)c2nc3ccccc3[nH]2)cc1OC | . | 22%[46.1 µM] | -6.6% | . | . | . | 8% | 36%[activator]
CCOc1ccc(S(=O)(=O)NCCC(=O)NCCc2ccc(OCC)c(OCC)c2)cc1 | 10% | ? | . | . | 4% | -10% | . | -17%

Source: PubChem
